# High-throughput results: PubChem BioAssay, ICCB-Longwood Screening Facility, Harvard Medical School
# MenB inh – inhibitors of Mycobacterium tuberculosis MenB enzyme. MenB enzyme assay, absorbance read-out; some hits fall short of the stated cut. inhibition, %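 (about 12 µg/mL by stock and volumes)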. 0.43% of 100,000 active. AID 540299;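 active means mean of two replicates above 30%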;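 further: 0% = no compound and 100% = wells with inactive enzyme; the first replicate is given; strong numbers were not always called active; inactives centre near -10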
# Target sequence (P9WNP5 whole entry, looked up): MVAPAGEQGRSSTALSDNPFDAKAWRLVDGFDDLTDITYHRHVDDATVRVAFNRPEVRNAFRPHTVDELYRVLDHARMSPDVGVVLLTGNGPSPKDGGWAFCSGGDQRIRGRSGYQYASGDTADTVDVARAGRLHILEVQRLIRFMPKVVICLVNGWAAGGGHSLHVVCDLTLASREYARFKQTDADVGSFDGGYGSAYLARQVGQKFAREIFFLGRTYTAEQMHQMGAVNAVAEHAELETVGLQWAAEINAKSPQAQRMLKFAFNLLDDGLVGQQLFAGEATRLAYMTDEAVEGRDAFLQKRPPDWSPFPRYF
# Mtb MbtI inh – inhibitors of Mycobacterium tuberculosis siderophore enzyme MbtI; 0.89% of 100,000 active; AID 493033; inhibition, %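 (about 17 µg/mL by stock and volumes)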; purified MbtI enzyme, fluorescence intensity read-out; P9WFX0;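 active means above 50% in both replicates, above 80% if mildly self-fluorescent; inactive means the rest, strongly fluorescent compounds included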;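 further: 0% = mean of negative and 100% = mean of positive controls; one replicate is shown; some compounds called inactive have numbers as strong as hits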
# Target sequence (P9WFX0 whole entry, looked up): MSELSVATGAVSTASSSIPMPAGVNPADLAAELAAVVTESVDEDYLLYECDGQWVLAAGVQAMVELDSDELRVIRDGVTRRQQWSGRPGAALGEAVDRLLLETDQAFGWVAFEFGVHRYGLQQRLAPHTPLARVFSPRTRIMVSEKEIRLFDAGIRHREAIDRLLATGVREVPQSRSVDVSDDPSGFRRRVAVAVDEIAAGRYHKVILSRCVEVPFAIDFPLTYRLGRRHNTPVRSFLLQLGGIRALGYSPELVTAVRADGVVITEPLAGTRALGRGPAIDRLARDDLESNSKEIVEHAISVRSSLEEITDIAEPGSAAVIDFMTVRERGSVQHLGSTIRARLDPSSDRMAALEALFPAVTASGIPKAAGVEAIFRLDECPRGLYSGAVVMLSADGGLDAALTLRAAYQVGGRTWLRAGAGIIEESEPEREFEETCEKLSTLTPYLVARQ
# Polio RdRp inh – inhibitors of poliovirus RNA polymerase binding and polymerization. poliovirus polymerase elongation, fluorescence polarization; hits give low values. % elongation, % (compound at 16.7 µg/mL). 0.66% of 150,000 active. AID 588519; in the data active means % elongation below about 90%; further: some results filed as inactive read as strong as hits
# Polio RdRp inh intensity – recorded beside Polio RdRp inh, whose call it bears; % elongation; measured here: total intensity read-out; formula for this scale not given here;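 total fluorescence in place of polarization; lower means less elongation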
# The depositor's hits bear a star; i = inactive; x = not tested or not shown; & = joins results of further samples.
# The first 6 records, ahead of the listing:
# Sequence of screens: MenB inh	Mtb MbtI inh	Polio RdRp inh	Polio RdRp inh intensity
COc1ccc(CNC(=O)C(c2cccs2)N(Cc2cccs2)C(=O)Cc2cccs2)cc1 (stereo not drawn)
    17	7	99	102
CON(C)S(=O)(=O)c1cccc(C(=O)Oc2ccc(-n3cnnn3)cc2)c1
    -22	0	102	97
Cc1n[nH]c(C)c1S(=O)(=O)N1CCc2ccccc21
    -8	-6	101	97
C1=C(c2ccccc2)CC(c2ccccc2)=C1
    0	115	102	103
Cc1ccc(P(C)(=O)c2ccc(C)cc2)cc1
    -17	x	108	109
CCc1ccc(Nc2nc(Nc3ccc(OC)c(OC)c3)nc(N3CCOCC3)n2)cc1
    -12	24	103	106

# The listing, previewed entries included:
# Sequence of screens: MenB inh	Mtb MbtI inh	Polio RdRp inh	Polio RdRp inh intensity
COc1ccc(CNC(=O)C(c2cccs2)N(Cc2cccs2)C(=O)Cc2cccs2)cc1 (stereo not drawn)
    17	7	99	102
CON(C)S(=O)(=O)c1cccc(C(=O)Oc2ccc(-n3cnnn3)cc2)c1
    -22	0	102	97
Cc1n[nH]c(C)c1S(=O)(=O)N1CCc2ccccc21
    -8	-6	101	97
C1=C(c2ccccc2)CC(c2ccccc2)=C1
    0	115	102	103
Cc1ccc(P(C)(=O)c2ccc(C)cc2)cc1
    -17	x	108	109
CCc1ccc(Nc2nc(Nc3ccc(OC)c(OC)c3)nc(N3CCOCC3)n2)cc1
    -12	24	103	106
O=C(C1CC2CCC1C2)N1CCN(c2ccc3c(c2)OCO3)CC1 (stereo not drawn)
    -9	x	106	108
CCOC(=O)Cc1sc(Nc2ccccn2)nc1-c1ccccc1
    -3	-1	101	104
CC(C)(C)n1nc(C2CC2)cc1NC(=O)c1ccccc1
    -15	-3	100	103
OC(COCc1ccc(Cl)cc1)CN1CCCCCC1 (stereo not drawn)
    14	-34	96	100
O=C(NCC(c1ccco1)S(=O)(=O)c1ccc(Cl)cc1)c1ccc2c(c1)OCO2 (stereo not drawn)
    -17	-11	104	109
O=C(Nc1cnc2ccccc2c1)N1CCOCC1
    -28	39	102	106
COc1cc(OC)cc(C(=O)OC(C)C(=O)Nc2ccc(C(N)=O)cc2)c1 (stereo not drawn)
    11	6	107	104
O=C(c1ccccc1)N1CCN(C(=O)c2cccc(S(=O)(=O)N3CCCC3)c2)CC1
    -3	-7	104	107
CN(C)c1cc(=O)n2c(n1)SCCC2
    -26	-12	107	99
CC(/C=C1\SC(=S)N(CCC(=O)NC2CCCCC2)C1=O)=C\c1ccccc1
    -11	11	101	98
N#Cc1c(N)sc2c1-c1ccccc1CC2
    -41	15	104	103
COc1ccc(C2NC(C(=O)O)Cc3[nH]cnc32)cc1 (stereo not drawn)
    -30	13	103	105
CCOC(=O)C1CCN(C(c2cccnc2)c2c(C)[nH]c3ccccc23)CC1 (stereo not drawn)
    0	58	98	107
NNc1nnc2c(n1)[nH]c1ccccc12
    -8	x	107	103
COC(=O)CNC(=O)c1cc(OC)c(OC)c(OC)c1
    1	4	106	106
O=C(OCC(=O)N(Cc1ccccc1)C1CCS(=O)(=O)C1)c1ccccc1C(F)(F)F (stereo not drawn)
    -2	24	99	102
CCc1cccc(CC)c1NC(=O)CC#N
    x	-2	103	95
CCSc1nnc(-c2cccc(S(=O)(=O)N(C)C)c2)n1-c1cccc(C)c1
    -16	13	104	105
Cc1ccc(NC(=O)CN2C(=O)S/C(=C\c3ccc(C)o3)C2=O)cc1
    -27	9	101	103
O=C(NCc1cccc(Cl)c1)c1cnc2ccccn2c1=O
    5	107	105	109
CC(=O)N/N=C(/C)c1ccccc1
    -59	-3	104	103
CN(C)c1nc2c(c(=O)n(C)c(=O)n2C)n1CC(=O)c1ccccc1
    -9	x	105	103
COC(=O)c1ccc(/C=N/c2c(-c3ccco3)nc3ccccn23)cc1
    -12	8	100	102
Cc1c[nH]c2cccc(OCC(O)CN3CCN(C(c4ccccc4)c4ccccc4)CC3)c12 (stereo not drawn)
    -25	x	96	120
C(/C=C/c1ccco1)=NN1CCN(C2c3ccccc3-c3ccccc32)CC1
    -51	8	102	102
Cc1ccc(NCCOc2ccccc2)c(C)c1
    -13	6	101	101
O=C(NCCO)c1cc2ccccc2oc1=O
    4	95	101	105
Cc1nn(C2CCS(=O)(=O)C2)c(Cl)c1/C=C1\SC(=S)NC1=O (stereo not drawn)
    -90	-1	106	106
Cc1cc(C(=O)COC(=O)CCc2nc3ccccc3c(=O)[nH]2)c(C)n1C
    2	4	123	157
Cc1cc(NNS(=O)(=O)c2ccc(OC(F)(F)F)cc2)n2ncnc2n1
    -19	10	98	101
O=C(CN1C(=O)NC(Cc2ccccc2)C1=O)c1ccc(S(=O)(=O)N2CCCC2)cc1 (stereo not drawn)
    -13	-3	101	108
C/C(=N\NC(=O)c1cc2ccccc2cc1O)c1ccc(N)cc1
    -10	7	100	103
CNc1cncc(C(=O)O)c1
    -13	109	104	103
O=C(Nc1ccccn1)c1ccc(Br)o1
    -14	x	101	104
CCN(CC)CCn1c(NCc2ccc(C)o2)nc2ccccc21
    x	-6	103	103
COc1ccc(-c2noc(=O)n2CCCC#N)cc1OC
    31*	0	103	99
CC(C)Nc1nn(CN2CCN(C(=O)c3ccccc3)CC2)c(=S)s1
    -3	77*	91	97
C/C=C/c1c(C)nc2sc(C#N)c(N)c2c1C
    9	x	101	95
O=C(NC1CCCC1)C1CCCN(S(=O)(=O)c2ccc3[nH]c(=O)ccc3c2)C1 (stereo not drawn)
    -7	9	103	100
O=C1CC(c2ccccc2)CC(O)=C1C=NCc1cccnc1 (stereo not drawn)
    -22	12	101	105
CC(C)n1c(SCC(=O)N(Cc2ccccc2)C(C)(C)C)nc2c1c(=O)n(C)c(=O)n2C
    -15	0	101	104
O=C1OCc2cc(-n3cnnn3)ccc21
    -12	x	102	108
COc1ccc(/C=C/C(=O)N2c3ccccc3COC2c2ccccc2)cc1 (stereo not drawn)
    -8	31	100	104
CC1=C(C(=O)Nc2ccccc2C(=O)NCc2ccc3c(c2)OCO3)SCCO1
    0	10	102	98
FC(F)(F)c1nc(Cl)c2ccccc2n1
    17	72	97	99
CCN1c2ccccc2-c2nc3ccccc3n2C1c1ccsc1 (stereo not drawn)
    -8	117	99	100
Cc1cccc(C(=O)NCc2nc(-c3ccccc3Cl)no2)c1
    -17	-3	103	103
O=C(c1ccccc1)c1cnc2ccccn2c1=O
    3	-10	105	109
COCCNC(=O)c1ccc2c(c1)C(=O)N(C)C2=O
    -7	-22	104	102
CCN(CC)C1=NC(=O)C(CC(=O)Nc2cccc(C(=O)NCc3ccco3)c2)S1 (stereo not drawn)
    -7	31	101	106
CCC(C)NC(=O)C1CCN(S(=O)(=O)N2CCC3(CC2)OCCO3)CC1 (stereo not drawn)
    14	20	102	99
Cc1ccc(-n2c(=O)oc3ccc(Cl)cc3c2=O)cc1Cl
    1	-108	102	105
COC(=O)CSc1nnc2n1C(C)(C)Cc1ccccc1-2
    -59	-4	102	99
COc1ccccc1NC(=O)CN(Cc1ccco1)C(=S)NCc1ccccc1
    -9	10	109	113

# (cont.)
# Sequence of screens: MenB inh	Mtb MbtI inh	Polio RdRp inh	Polio RdRp inh intensity
CCCCNC(=O)Nc1ccc(Br)cn1
    7	-1	105	107
C=CCn1c(CCc2ccc(OC(C)C)cc2)n[nH]c1=S
    -35	44	98	99
COc1cc2c(C#N)c(N(C)C(c3ccccc3)c3ccccc3)nc(N)c2c(N)n1
    4	-50	112	128
CCCn1c(=O)n(C)c(=O)c2c(SC(C)c3nc4ccccc4c(=O)[nH]3)nc(C(C)(C)C)nc21 (stereo not drawn)
    -12	-5	104	106
Cc1csc(Nc2ccc(F)c(Cl)c2)[n+]1C(C)C
    -14	-6	103	106
CCN1C(=O)/C(=C2/C=CC=CN2C)N(c2ccccc2)C1=S
    -82	19	101	95
O=C(NC1CCCCC1)N1CCCC(c2nc(-c3ccc(Cl)cc3)no2)C1 (stereo not drawn)
    -61	-10	105	113
O=C(/C=C/C=C/c1ccccc1)c1ccc(Cl)cc1
    -27	-16	103	105
NC(=O)COC(=O)c1cc(Cl)cc(Cl)c1
    x	-7	100	102
CCN1/C(=C/c2scc[n+]2C)C=C(C)c2cc(OC)c3ccccc3c21
    2	2	56*	57*
CC(C)(C)SCC(=O)NCc1ccc(S(N)(=O)=O)cc1
    -4	2	97	108
O=C(/C=C/S(=O)(=O)c1ccc(Cl)cc1)c1ccc(F)cc1
    9	98*	98	98
O=C(CCCN1CCN(c2ccccn2)CC1)c1ccc(F)cc1
    6&1	2&-10	101&100	103&101
CN(Cc1cccs1)C(=O)COc1ccc(-c2nnco2)cc1
    4	19	x	x
c1ccc(CNc2ncnc3nc[nH]c23)cc1
    -19&-13&-6	8&0	106&103&99	106&100&99
N#Cc1ccccc1S(=O)(=O)Nc1ccccc1
    0	2	103	108
O=C(CNC1CC1)Nc1c(Cl)cccc1Cl
    -7	17	101	99
CNCC(=O)Nc1c(C)n[nH]c1C
    11	-6	99	106
NN(C(=O)C1CCCCC1)c1nc2ccccc2s1
    -13	x	107	109
CC(C)NC(=O)c1ccc2c(=O)n(CCc3ccccc3)c(=O)[nH]c2c1
    -59	-2	100	103
Nc1cc(Cl)ccc1C(=O)OCC(=O)c1ccccc1
    x	8	100	99
CCCCNC(=O)c1ccc(F)cc1Cl
    13	-9	101	103
COC(=O)C1C(=O)C2=C(CC1C)Nc1ccccc1NC2c1ccc(N(C)C)cc1 (stereo not drawn)
    -43	8	103	101
COC(=O)CN1C(=S)N(C)C(=O)/C1=C/c1ccco1
    i	19	105	110
O=C(NCc1ccccc1)c1ccccc1C(=O)c1ncc[nH]1
    -11	-22	101	101
CNC(=O)Cn1nc(-n2cccc2)c2c(C)cc(C)nc21
    -21	-36	103	104
CCOC(=O)c1nc(NCc2ccc3c(c2)OCO3)c2ccccc2n1
    -15	-3	100	101
CCOC(=O)c1ccc(NCc2ccccc2OC)cc1
    -18	-302	103	104
Clc1nc(Cl)nc(OCCCOc2nc(Cl)nc(Cl)n2)n1
    4	-13	103	102
COC(=O)c1ccc(COC(=O)c2ccccc2NC(=O)Cc2ccccc2)o1
    -36	12	98	69
Cc1nc2ccc(NC(=O)[C@@H]3CCCN3S(=O)(=O)c3ccc4c(c3)OCCO4)cc2s1
    -34	-7	105	108
CCn1c(COc2ccccc2)nnc1SCC(=O)CC(=O)Nc1ccccc1OC
    -16	12	103	103
CCC(C)NC(=O)CSc1nc2ccc(C(C)C)cc2cc1C#N (stereo not drawn)
    5	-6	102	102
CC1Cc2ccccc2N1C(=O)COC(=O)c1ccc(S(=O)(=O)N2CCCC2)cc1 (stereo not drawn)
    3	6	104	95
CC1CCc2cc(F)ccc2N1S(=O)(=O)c1ccc(N2CCCCS2(=O)=O)cc1 (stereo not drawn)
    -11	3	100	102
Cc1ccc(-c2csc(N3CCC(C(N)=O)(N4CCCCC4)CC3)n2)cc1
    2	0	100	101
Fc1ccc(-c2csc(-c3ccc(-c4cccs4)s3)n2)cc1F
    -7	-19	102	103
O=C(Cc1ccsc1)OCc1nc2ccccc2s1
    -3	-6	102	99
COCc1c(C(=O)OCC(=O)c2ccc(Br)s2)oc2ccccc12
    -31	-8	108	108
O=C1CN=C(c2ccc(F)cc2)c2cc(Br)ccc2N1
    -18	3	108	102
CCOC(=O)c1cc(C)sc1NC(=O)c1ccc(C)cc1
    x	63	106	110
Cc1cc2c(cc1S(=O)(=O)C(C)CC(=O)N(C)Cc1ccccc1)OCC(=O)N2 (stereo not drawn)
    -6	-5	101	103
Cc1cc(-c2ccc(S(=O)(=O)NC(C)(C)C)s2)n[nH]1
    2	-55	102	102
CC1(C)Oc2ccc3ccc(=O)oc3c2/C(=C/O)C1=O
    -16	15	103	101
CN1CCc2cccc3c2[C@H]1Cc1ccc(O)c(O)c1-3
    -3	152	98	101
CCOC(=O)c1cnc2c(C)c(C)ccc2c1NCCCN(C)C
    -1	x	69*	53*
COc1ccc(CC(=O)OCC(=O)Nc2cc(C)ccc2C)cc1
    x	-3	101	99
CCCCOc1ccc(NC(=O)CCC)cc1
    -9	-15	102	100
O=c1[nH]c(=S)[nH]c2c1cnn2-c1ccccc1
    16	96	96	88
CCCc1ccc(-c2c(C)sc(N)c2C#N)cc1
    -43	x	109	105
COC(=O)NCCOc1nc(N(C)C)nc(N(C)C)n1
    -15	-6	101	105
O=C(O)C1C2C=CC3(CN(Cc4ccncc4)C(=O)C13)O2 (stereo not drawn)
    -9	x	111	114
CCn1c(=O)[nH]c2ccccc21
    -11	11	95	99
Cc1onc(-c2c(F)cccc2Cl)c1C(=O)ONC(=O)c1ccccc1
    13	0	101	95
CC1=C(C#N)C(c2ccc(Br)cc2)C2=C(CCCC2=O)N1 (stereo not drawn)
    -31	118	105	101
Cc1nc(/C(N)=N/OC(=O)c2c(-c3ccccc3Cl)noc2C)cs1
    6	7	101	102
COC(=O)c1ccccc1NC(=O)COC(=O)C1=NNC(=O)CC1
    -5	2	112	122
